Screens from PubChem.
LANA-nucl inh – inhibitors of KSHV LANA binding to nucleosomes; FITC-LANA1-23 / chicken nucleosome fluorescence polarization; stronger effect = lower value; z-score (no concentration beside the values); 51,000 tested, 0.3% active; AID 720717;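 active means both repeat wells score below -2 in polarization z-score versus plate sample wells, excluding overly bright wells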;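 further: 100 nL library stock added to about 30 µL; numbers are from one replicate; some results filed as inactive read as strong as hits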
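Assay system: purified chicken nucleosomes with FITC-labelled LANA N-terminal peptide (1-23) / Probe or stimulus: 50 nM FITC-LANA1-23 probe / Compound dosing: pin-transferred compound, 100 nL / Times: compound with peptide–nucleosome mix 10–45 min at room temperature / Technique: fluorescence polarization, 480 nm excitation, 535 nm parallel and perpendicular emission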
BasE inh – inhibitors of Acinetobacter baumannii siderophore enzyme BasE. purified BasE, fluorescence polarization binding displacement. inhibition, % (test concentration not listed). 84,000 tested, 0.1% active. AID 485350;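 active means both replicates above 25% with normal brightness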;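 further: 0% = negative plate control signal and 100% = positive plate control signal; stock transfer was 100 nL into about 30 µL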
An asterisk follows results filed as active; · = no result given; & = joins results of further samples. These rows are one share of the data; rates above refer to the full screens.

Sample of the layout, three compounds:
SMILES | LANA-nucl inh | BasE inh
Cc1ccc(COn2c(-c3ccccc3)nc3ccccc3c2=O)cc1 | · | 3.0
CC1CCN(S(=O)(=O)c2cc(Br)cc(C(=O)OCC(=O)N3CC(=O)Nc4ccccc43)c2)CC1 | · | -7.8
CCOC(=O)c1cc(-c2cccs2)nn1CCC#N | · | 0.3

All compounds of this part, repeating the preview:
SMILES | LANA-nucl inh | BasE inh
Cc1ccc(COn2c(-c3ccccc3)nc3ccccc3c2=O)cc1 | · | 3.0
CC1CCN(S(=O)(=O)c2cc(Br)cc(C(=O)OCC(=O)N3CC(=O)Nc4ccccc43)c2)CC1 | · | -7.8
CCOC(=O)c1cc(-c2cccs2)nn1CCC#N | · | 0.3
COC(=O)c1cn(CC(=O)OCC(=O)Nc2ccc(F)cc2)c2ccccc12 | · | -3.4
COc1ccc(C2C(C(=O)N3CCN(Cc4ccc5c(c4)OCO5)CC3)CC(=O)N2c2ccc(OC)cc2)cc1 (configuration not stated) | -0.23 | -1.1
O=C(/C=C/c1ccccc1)Nc1ccc2c(c1)OCO2 | · | -1.4
O=C(CSc1ncnc2sc3c(c12)CCC3)NCCN1C(=O)CSC1=O | · | 0.5
CCN(CC)N=Nc1ccc(S(=O)(=O)Nc2nc(C)cc(C)n2)cc1 | -1.1 | -0.1
Cc1ccc(Cc2c(C)nc(N3CCCC3)[nH]c2=O)cc1 | -1.1 | 3.4
CC(O)CNC(=O)C1CC(=O)N(c2ccccc2)C1 (configuration not stated) | 0.4 | -0.4
CNC(=S)N(Cc1ccco1)Cc1cc2ccc(C)cc2[nH]c1=O | -1.1 | 2.8
CCc1cc2c(COC(=O)c3ccccn3)cc(=O)oc2cc1O | · | -1.3
O=C(/C=C/Sc1ccccn1)c1ccccc1 | · | 5.5
CCOC(=O)/C(=N\Nc1ccccc1Cl)N(C)C1CCN(C)CC1 | · | 1.8
Cc1ccc2nc(SCC(=O)N(C(C)C)C(C)C)[nH]c2c1 | -0.17 | -4.9
CCOC(=O)c1sc(Nc2nc3ccccc3nc2Cl)c(C#N)c1C | · | 0.9
CC(=O)N1[C@@H](c2ccc(C)cc2)SC(C)(C)[C@@H]1C(=O)O | · | -1.1
CC1Cc2ccccc2N1CC(=O)Nc1ccc(C#N)cc1 (configuration not stated) | · | -0.1
CNC(=S)Nc1cscc1S(=O)(=O)c1ccc(Cl)cc1 | · | 1.0
COc1ccc(C(=O)n2ncc(C#N)c2N)cc1 | · | 3.2
Cn1c(NCCN(CCO)CCCc2ccc([N+](=O)[O-])cc2)cc(=O)n(C)c1=O | 0.53&-0.043 | ·
Cc1cccc(CCNC(=O)Cc2noc3ccccc23)c1 | -0.76 | 2.6
CCN(CC(=O)Nc1ccc2c(c1)OCCO2)C(=O)c1c(-c2ccccc2)noc1C | · | 1.2
O=C(NC(=O)c1ccc(-c2ccc(Cl)cc2)s1)c1ccccc1 | · | 1.1
CCOc1ccc(-n2ccnc(SCC(N)=O)c2=O)cc1 | -0.77 | -0.1
Clc1ccccc1C(c1ccccc1)(c1ccccc1)n1ccnc1 | 0.63&0.14&0.5&0.15 | -2.2&-2.6
CCOC(=O)c1cccc(NC(=O)c2c(C)nn(-c3ccccc3)c2-n2cccc2)c1 | -0.54 | -0.4
CC1CCC2(CC1)NC(=S)N(c1ccccc1)N2 (configuration not stated) | · | -0.4
CN(Cc1ccccc1)C(=O)Nc1ccccc1 | -0.56 | ·
Cc1n[nH]c(=O)n1Cn1c(C)n[nH]c1=O | · | 1.2
N#CCCn1c(SCc2cc3ccccc3nc2Cl)nc2ccccc21 | · | 1.7
Cc1ccccc1OC(C)C(=O)NC1CCCC1 (configuration not stated) | 0.38 | 1.7
COc1ccc(-c2nc3ccc(C)cc3[nH]2)cc1OC | 0.4 | -9.0
Nc1c(C(=O)N2CCc3ccccc32)sc2nc(C(F)(F)F)c3c(c12)CCCC3 | · | 1.2
COc1ccc(OCC(O)CNC(=O)c2cc(C(C)(C)C)nn2C)cc1 (configuration not stated) | · | 2.6
Cc1nc(SCC(=O)N2CCCC2c2ccc3c(c2)OCCCO3)c(C#N)c(C)c1C (configuration not stated) | · | 0.3
O=C(CN(Cc1ccco1)C(=O)Cc1ccccc1F)Nc1ccccc1C(F)(F)F | · | -4.9
COc1ccc(C(=O)N2CC(=O)Nc3ccccc32)cc1S(=O)(=O)NCc1ccncc1 | · | 1.6
O=C(/C=C/c1ccccc1)Nc1ccc(N2CCN(c3ccc(C(F)(F)F)cn3)CC2)nc1 | · | 1.0
Cc1cc(C)n(-c2ncc(S(=O)(=O)C(C)(C)C)c(N)n2)n1 | 0.22 | 1.8

Sorted by heavy-atom count (largest number first): 3 of the compounds above.
SMILES | LANA-nucl inh | BasE inh
Cc1nc(SCC(=O)N2CCCC2c2ccc3c(c2)OCCCO3)c(C#N)c(C)c1C (configuration not stated) | · | 0.3
COc1ccc(-c2nc3ccc(C)cc3[nH]2)cc1OC | 0.4 | -9.0
Cc1n[nH]c(=O)n1Cn1c(C)n[nH]c1=O | · | 1.2

(listing goes on)
SMILES | LANA-nucl inh | BasE inh
O=C(COc1ccc(Cl)cc1)n1nnc2ccccc21 | · | 5.0
Cc1ccc(NC(=O)CC(C)CC(=O)O)cc1 (configuration not stated) | · | -1.7
N#Cc1ccsc1NC(=O)CSc1nnc(NC2CC2)s1 | · | 1.9
CC(C)(C)c1ccc(-c2ncon2)cc1Cn1nnc(-c2cccc(C(F)(F)F)c2)n1 | · | 2.0
O=C(OCc1cc(=O)oc2cc3c(cc12)CCC3)c1ccc(-n2cnnn2)cc1 | · | 1.7
Cc1[nH]c2ccccc2c1C(=O)CN(C)C1CCCCC1 | 0.14 | 0.7
CC(C)CNC(=S)NCc1ccco1 | 0.37 | 0.7
Cc1ccc(-n2nc(C)c3c(C)cc(=O)[nH]c32)cc1 | 0.019 | 0.0
CCOC(=O)c1c(-c2cccs2)csc1NC(=O)CSc1ccccn1 | · | -1.7
NC(=O)c1cnn2c(C(F)(F)F)cc(-c3ccccc3)nc12 | 0.28 | 5.9
CC1(C)N=C(SCC(=O)Nc2ccccc2)c2ccccc2N1 | · | -6.2
CC1=C(/C=C/C(C)=C/C=C/C(C)=C/CO)C(C)(C)CCC1 | -0.029&0.58 | 3.6
CCCNC(=O)c1cnn(-c2cccc(C)c2)c1-n1cccc1 | · | 2.9
Clc1ccc(-c2noc3ncnc(N4CCCC4)c23)cc1 | 0.71 | -0.9
CSc1nsc(SC)c1NC(=O)N1CCCC1 | -0.88 | 0.2
CCc1ccc2[nH]c(=O)c(Cc3ccccc3)c(O)c2c1 | -0.15 | -0.1
Cc1onc(-c2ccccc2Cl)c1C(=O)N=C1N=C2C=CC=CN2Cc2ccccc21 | · | -6.3
COc1ccc(CCN2C(=O)C3C(C(=O)Nc4cc(C)on4)C4(C)C=CC3(O4)C2C(=O)NC2CCCCC2)cc1 (configuration not stated) | -1.6 | 0.8
Cc1noc(C)c1COC(=O)CNS(=O)(=O)c1c(Cl)cccc1Cl | · | -0.4
[O-][n+]1ccccc1Oc1ncnc2sc3c(c12)CCCC3 | · | -5.2
CC(=O)n1c(-c2ccc(C)cc2)cc(-c2ccc(C)cc2)c(C#N)c1=O | · | -0.5
COC(=O)c1ccccc1N1C(=N)SCC1=O | -0.2 | 19
[O-]/[N+](=C\c1ccccc1)C1CCCCC1/[N+]([O-])=C/c1ccccc1 (configuration not stated) | 0.024 | 2.0
CN(c1ccccc1)c1nc(N)c2c(N)nc(SCC(=O)O)cc2c1C#N | · | 0.9
CSc1nc2ccccc2c(=O)n1CCc1ccccc1 | · | 1.2
Cc1ccccc1OCC(=O)Nc1sc2c(c1C(=O)NCc1ccco1)CCCC2 | -0.78 | 0.9
Cn1ccnc1SCC(=O)n1c2c(c3ccccc31)CCCC2 | -0.5 | 0.6
CNC1(C#N)CCC(C)CC1 (configuration not stated) | · | 2.2
Cc1cc(C)c2nc3nc(C)cc(C)c3c(N)c2c1 | -1.2 | 4.6
O=C(CSc1nnc(-c2cccnc2)o1)c1ccccc1 | -0.43 | 0.7
CCC(Sc1nc2ncccc2o1)C(=O)NC1CCCCC1 (configuration not stated) | 0.3 | 1.2
CC1CCC2(CC1)NC(=O)N(NC(=O)CN1c3cccc4cccc(c34)S1(=O)=O)C2=O (configuration not stated) | · | -3.2
Cc1cnc(-c2oc3ccc(Br)cc3c(=O)c2C)cn1 | · | 0.5
CNCCC=C1c2ccccc2C=Cc2ccccc21 | 0.2 | -5.6
Cc1ccc(N(CC(=O)N2CCN(c3ccccc3)CC2)C2=NC(=O)CS2)cc1 | · | 0.8
CC(C)N1C(=O)CCC1C(=O)NCCc1ccccc1 (configuration not stated) | -1.6 | 2.7
O=C1/C(=C/c2ccc(Br)cc2)C=C(c2ccccc2)N1c1ccccc1O | · | -16
CC(=O)Nc1ccc(CN2CCOCC2)cc1 | 0.78 | 2.7
N#CC1C(=O)Nc2nc(N)[nH]c(=O)c2C1c1ccc(F)cc1 (configuration not stated) | 0.42 | 1.4
CSc1nc2ccc(NC(=O)C3CCCO3)cc2s1 (configuration not stated) | · | -0.9
O=S(=O)(N=P(Nc1nccs1)(c1ccccc1)c1ccccc1)c1ccccc1 | · | -1.0
CC(=O)Nc1ccc(S(=O)(=O)C(C#N)c2nc3ccccc3nc2NCCCO)cc1 (configuration not stated) | · | -3.5
Oc1ccccc1N1CCN(c2nc(CN3CCOCC3)nc3sc4c(c23)CCCC4)CC1 | · | -0.5
COc1ccccc1N1CCN(C(=O)CN(Cc2ccccc2)S(=O)(=O)c2ccc(F)cc2)CC1 | -0.58 | 0.1
O=C(NCC1CCCO1)C1CCCN(S(=O)(=O)c2ccc(Br)cc2)C1 (configuration not stated) | 1.6 | -2.3
Cc1ccc(NC(=O)OCC(F)(F)F)cc1Cl | · | -0.1
Cc1cccn2cc(-c3cccc(S(=O)(=O)N(C)C)c3)nc12 | 0.55 | -5.4
O=c1ccc(=O)n(Cc2ccccc2)[nH]1 | -0.47 | 0.0
CCCc1cc(=O)oc2cc3occ(-c4ccccc4)c3cc12 | · | 0.2
O=c1c(-c2ccc(Oc3ccccc3)cc2)[n+]([O-])c2ccccc2n1O | 0.26 | 0.4
CC1CCCN(S(=O)(=O)c2ccc(S(=O)(=O)N(Cc3cccs3)Cc3cccs3)cc2)C1 (configuration not stated) | 2.7 | -4.3
COc1cc(-c2nc3cc(OC(C)=O)ccc3c(=O)o2)cc(OC)c1OC | 0.099 | -4.0
Cn1nnc2cc(C(=O)N3CCSCC3)ccc21 | -0.2 | 2.3
Cc1nn(-c2ccccc2)nc1C(=O)N1CCN(S(=O)(=O)c2ccc3c(c2)OCCCO3)CC1 | · | 1.2
O=C(CCS(=O)(=O)c1nc(-c2ccc3c(c2)OCO3)cc(C(F)(F)F)n1)ON=C1CCCCC1 | -0.32 | 2.3
N#C/C(=C\c1ccc(SCc2ccc(Cl)cc2)o1)C(=O)NCc1ccco1 | 0.59 | -8.2
CCOC(=O)/C(C#N)=C/Nc1ccn(C)n1 | 0.039 | 2.1
c1ccc(OCCOc2ccccc2-c2nnco2)cc1 | · | 2.8
CNC[C@H](O)[C@@H](O)[C@H](O)[C@H](O)CO | 0.4 | ·
NC(=O)C1CCN(c2nccc(C(F)(F)F)n2)CC1 | · | -3.0

Full records, looked up by structure. Values in the order: LANA-nucl inh | BasE inh
O=S(=O)(N=P(Nc1nccs1)(c1ccccc1)c1ccccc1)c1ccccc1 is listed as · | -1.0
CCCc1cc(=O)oc2cc3occ(-c4ccccc4)c3cc12 is listed as · | 0.2
c1ccc(OCCOc2ccccc2-c2nnco2)cc1 is listed as · | 2.8
N#C/C(=C\c1ccc(SCc2ccc(Cl)cc2)o1)C(=O)NCc1ccco1 is listed as 0.59 | -8.2
COc1cc(-c2nc3cc(OC(C)=O)ccc3c(=O)o2)cc(OC)c1OC is listed as 0.099 | -4.0

Additional results follow.
SMILES | LANA-nucl inh | BasE inh
CC1=CC2(O)OCCN(Cc3ccccc3)C2=CC1=O (configuration not stated) | -1.3 | 0.4
CN(C)S(=O)(=O)N1CCNCC1 | -0.94 | 2.5
O=C(O)CSCC(=O)c1c[nH]c2ccccc12 | 0.097 | 1.7
COC(=O)c1ccc(CSc2cc(C)c3ccccc3n2)o1 | · | 0.6
COc1ccc(C2C(=O)N(C3CCCC3)CC(=O)N2Cc2cccs2)cc1 (configuration not stated) | 0.47 | -0.8
CCn1nnc2cc(C(=O)OCC(=O)Nc3cc(OC)cc(OC)c3)ccc21 | · | -3.8
Cc1cc(OCCN2CCOCC2)nc(N2CCOCC2)n1 | 0.35 | -0.9
CCOC(=O)c1ccsc1NC(=O)/C=C/c1cccs1 | 1.8 | 0.0
O=C(CCS(=O)(=O)c1ccc2c(c1)CCN2C(=O)C1CC1)NCc1ccccc1 | 0.37 | -1.5
CCOC(=O)c1cc(-c2ccc(S(=O)(=O)NC3CC3)s2)on1 | 1.1 | -0.5
COc1cccc(/C=N/n2c(-c3ccco3)csc2=NC2CCCCC2)c1O | · | 0.2
O=C(NC1CC1)c1ccc2c(c1)N(Cc1ccccc1)C(=O)c1ccccc1S2=O (configuration not stated) | -0.98 | 2.1
COc1cc(-c2nc3ccccc3[nH]2)cc(OC)c1OC | 2.2 | -4.6
O=C(NC1CC1)C1CCCN1S(=O)(=O)c1ccccc1 (configuration not stated) | -0.19 | 0.0
N#Cc1ccc(CSc2nc(-c3ccccc3)cc(=O)[nH]2)cc1 | -0.49 | 2.6
CN1C(=O)/C(=C/C=C2/Sc3ccccc3N2CCO)SC1=S | -0.2 | -12
CCOC(=O)C1CCCN(c2nc3c(C)cc(C)cc3s2)C1 (configuration not stated) | -2.2 | 0.9
COC(=O)C(C)c1ccc(C(=O)c2cccs2)cc1 (configuration not stated) | -1.3 | -2.6
